# Screens (PubChem)
# Ran importin – RanGTP/importin-beta interaction disruptors – biochemical, CFP-Ran/YFP-importin-beta FRET, RCC1, cell-free, primary screen (AID 434961); inhibition, %; 0.2% of 7,700 active; CFP-Ran/YFP-importin-beta FRET, cell-free; stronger effect = higher value;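 active = more than half of the replicate wells above 15% inhibition; inconclusive = exactly half above it; inactive = fewer than half above it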;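 note: 0% = DMSO wells and 100% inhibition = RanGDP control wells on each plate; stock of unstated strength diluted about 400-fold; mean of two wells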
# Numbers without * were called inactive; ? = inconclusive.
entry	Ran importin	SMILES
1	-1.2	C[C@@H]1CN([C@H](C)CO)C(=O)CCCn2cc(nn2)CO[C@H]1CN(C)Cc1cccc2c1OCCCO2
2	-0.7	CNC[C@H]1Oc2c(NC(=O)c3cc(C)nn3C)cccc2C(=O)N([C@@H](C)CO)C[C@H]1C
3	-5.5	CC(C)NC(=O)Nc1ccc2c(c1)C(=O)N([C@H](C)CO)C[C@H](C)[C@H](CN(C)Cc1ccc(C(=O)O)cc1)OCCCC[C@H](C)O2
4	5.1	COc1ccc(S(=O)(=O)Nc2ccc3c(c2)CC(=O)N([C@@H](C)CO)C[C@@H](C)[C@@H](CN(C)C)O3)cc1
5	-0.2	C[C@@H]1CN([C@H](C)CO)C(=O)c2cc(NC(=O)c3ccccc3)ccc2O[C@@H](C)CCCCO[C@@H]1CN(C)S(=O)(=O)c1cn(C)cn1
6	0.1	C[C@@H]1CN([C@H](C)CO)C(=O)Cc2cc(NC(=O)Nc3ccc(C(F)(F)F)cc3)ccc2O[C@H]1CN(C)C(=O)NC1CCCCC1
7	-2.4	C[C@@H]1CN([C@H](C)CO)C(=O)c2cc(N(C)C)ccc2O[C@@H](C)CCCCO[C@H]1CN(C)Cc1ccncc1
8	1.8	C[C@@H]1CN([C@H](C)CO)C(=O)CCCn2nncc2CO[C@@H]1CN(C)C(=O)Nc1ccc(N2CCN(C)CC2)cc1
9	2.4	Cc1noc(C)c1S(=O)(=O)N(C)C[C@@H]1OCCCC[C@H](C)Oc2ccc(N(C)C)cc2C(=O)N([C@H](C)CO)C[C@H]1C
10	0.3	C[C@@H]1CCCCO[C@H](CN(C)S(=O)(=O)c2ccccc2)[C@@H](C)CN([C@H](C)CO)C(=O)c2cc(NS(C)(=O)=O)ccc2O1
11	5.2	COc1ccc(S(=O)(=O)N(C)C[C@@H]2Oc3c(NC(=O)C4CC4)cccc3C(=O)N([C@H](C)CO)C[C@@H]2C)cc1
12	-21.0	C[C@@H]1CCCCO[C@H](CN(C)C)[C@@H](C)CN([C@@H](C)CO)C(=O)c2cc(NC(=O)c3ccccc3)ccc2O1
13	4.0	C[C@@H]1CN([C@H](C)CO)C(=O)c2cc(N(C)C)ccc2O[C@H]1CN(C)S(=O)(=O)c1ccccc1
14	-0.5	C[C@@H]1CN([C@H](C)CO)C(=O)c2cc(NS(=O)(=O)c3cn(C)cn3)ccc2O[C@H]1CN(C)C
15	-1.6	C[C@H](CO)N1C[C@H](C)[C@H](CN(C)CC2CC2)Oc2c(cccc2N(C)C)C1=O
16	0.4	C[C@@H]1CN([C@@H](C)CO)C(=O)c2cc(NC(=O)CCN3CCOCC3)ccc2O[C@H]1CN(C)C(=O)Nc1ccc(F)cc1

# 15 entries from above, reformatted.
no. | canonical_smiles | Ran importin
1 | C[C@@H]1CN([C@H](C)CO)C(=O)CCCn2cc(nn2)CO[C@H]1CN(C)Cc1cccc2c1OCCCO2 | -1.2
2 | CNC[C@H]1Oc2c(NC(=O)c3cc(C)nn3C)cccc2C(=O)N([C@@H](C)CO)C[C@H]1C | -0.7
3 | CC(C)NC(=O)Nc1ccc2c(c1)C(=O)N([C@H](C)CO)C[C@H](C)[C@H](CN(C)Cc1ccc(C(=O)O)cc1)OCCCC[C@H](C)O2 | -5.5
4 | COc1ccc(S(=O)(=O)Nc2ccc3c(c2)CC(=O)N([C@@H](C)CO)C[C@@H](C)[C@@H](CN(C)C)O3)cc1 | 5.1
5 | C[C@@H]1CN([C@H](C)CO)C(=O)c2cc(NC(=O)c3ccccc3)ccc2O[C@@H](C)CCCCO[C@@H]1CN(C)S(=O)(=O)c1cn(C)cn1 | -0.2
6 | C[C@@H]1CN([C@H](C)CO)C(=O)Cc2cc(NC(=O)Nc3ccc(C(F)(F)F)cc3)ccc2O[C@H]1CN(C)C(=O)NC1CCCCC1 | 0.1
7 | C[C@@H]1CN([C@H](C)CO)C(=O)c2cc(N(C)C)ccc2O[C@@H](C)CCCCO[C@H]1CN(C)Cc1ccncc1 | -2.4
8 | C[C@@H]1CN([C@H](C)CO)C(=O)CCCn2nncc2CO[C@@H]1CN(C)C(=O)Nc1ccc(N2CCN(C)CC2)cc1 | 1.8
9 | Cc1noc(C)c1S(=O)(=O)N(C)C[C@@H]1OCCCC[C@H](C)Oc2ccc(N(C)C)cc2C(=O)N([C@H](C)CO)C[C@H]1C | 2.4
10 | C[C@@H]1CCCCO[C@H](CN(C)S(=O)(=O)c2ccccc2)[C@@H](C)CN([C@H](C)CO)C(=O)c2cc(NS(C)(=O)=O)ccc2O1 | 0.3
11 | COc1ccc(S(=O)(=O)N(C)C[C@@H]2Oc3c(NC(=O)C4CC4)cccc3C(=O)N([C@H](C)CO)C[C@@H]2C)cc1 | 5.2
12 | C[C@@H]1CCCCO[C@H](CN(C)C)[C@@H](C)CN([C@@H](C)CO)C(=O)c2cc(NC(=O)c3ccccc3)ccc2O1 | -21.0
13 | C[C@@H]1CN([C@H](C)CO)C(=O)c2cc(N(C)C)ccc2O[C@H]1CN(C)S(=O)(=O)c1ccccc1 | 4.0
14 | C[C@@H]1CN([C@H](C)CO)C(=O)c2cc(NS(=O)(=O)c3cn(C)cn3)ccc2O[C@H]1CN(C)C | -0.5
15 | C[C@H](CO)N1C[C@H](C)[C@H](CN(C)CC2CC2)Oc2c(cccc2N(C)C)C1=O | -1.6

# Next compounds follow.
entry	Ran importin	SMILES
17	-1.9	C[C@@H]1CN([C@@H](C)CO)C(=O)c2cccc(NS(=O)(=O)c3ccc(Cl)cc3)c2O[C@@H]1CN(C)Cc1ccc2c(c1)OCO2
18	3.1	C[C@H](CO)N1C[C@H](C)[C@@H](CN(C)Cc2ccc(C(=O)O)cc2)Oc2c(NS(=O)(=O)c3cccs3)cccc2C1=O
19	4.0	C[C@H](CO)N1C[C@H](C)[C@@H](CN(C)C(=O)OCc2ccccc2)OCc2cn(nn2)CCCC1=O
20	1.7	C[C@H]1CN([C@@H](C)CO)C(=O)c2cccc(NC(=O)c3nc4ccccc4s3)c2O[C@H]1CN(C)C(=O)NC1CCCCC1
21	-7.5	C[C@@H]1CN([C@H](C)CO)C(=O)c2cc(NC(=O)Cn3cnnn3)ccc2O[C@@H]1CN(C)Cc1ccc(Cl)c(Cl)c1
22	0.4	COc1ccc(S(=O)(=O)N(C)C[C@H]2Oc3ccc(NC(=O)C4CC4)cc3C(=O)N([C@@H](C)CO)C[C@@H]2C)cc1
23	-4.1	COc1ccc(NC(=O)Nc2ccc3c(c2)CC(=O)N([C@@H](C)CO)C[C@H](C)[C@@H](CN(C)S(=O)(=O)c2ccc(C)cc2)O3)cc1
24	-3.1	C[C@H]1CN([C@@H](C)CO)C(=O)Cc2cc(NC(=O)Cc3cn(C)c4ccccc34)ccc2O[C@H]1CN(C)Cc1ccc(C(=O)O)cc1
25	0.6	C[C@@H]1CN([C@H](C)CO)C(=O)c2cccc(NS(C)(=O)=O)c2O[C@H]1CN(C)Cc1ccc(C(F)(F)F)cc1
26	0.6	C[C@H](CO)N1C[C@H](C)[C@H](CN(C)C)Oc2c(NC(=O)C3CCOCC3)cccc2C1=O
27	-2.9	Cc1noc(C)c1S(=O)(=O)Nc1ccc2c(c1)C(=O)N([C@H](C)CO)C[C@H](C)[C@H](CN(C)C)OCCCC[C@H](C)O2
28	-2.8	C[C@H]1CCCCO[C@@H](CN(C)C(=O)CCC(F)(F)F)[C@@H](C)CN([C@@H](C)CO)C(=O)c2cc(NS(C)(=O)=O)ccc2O1
29	?	C[C@H](CO)N1C[C@H](C)[C@@H](CN(C)C)Oc2c(NC(=O)Nc3ccc4c(c3)OCO4)cccc2C1=O
30	-1.4	C[C@@H]1CN([C@H](C)CO)C(=O)c2cc(NS(C)(=O)=O)ccc2O[C@H]1CN(C)C
31	-3.8	C[C@@H]1CN([C@H](C)CO)C(=O)c2cccc(NC(=O)Nc3ccc(C(F)(F)F)cc3)c2O[C@@H]1CN(C)S(=O)(=O)c1cccs1
32	3.0	C[C@@H]1CN([C@@H](C)CO)C(=O)c2cc(NC(=O)Nc3ccccc3)ccc2O[C@@H](C)CCCCO[C@H]1CN(C)S(=O)(=O)c1ccc(F)cc1
33	1.6	C[C@@H]1CN([C@@H](C)CO)C(=O)c2cc(NC(=O)C3CC3)ccc2O[C@@H]1CN(C)C(=O)Nc1ccc(F)cc1
34	-0.7	C[C@@H]1CCCCO[C@H](CN(C)C)[C@@H](C)CN([C@H](C)CO)C(=O)c2cc(NC(=O)Nc3ccccc3)ccc2O1
35	-3.4	CNC[C@@H]1Oc2c(NS(=O)(=O)c3cccs3)cccc2C(=O)N([C@H](C)CO)C[C@H]1C
36	-3.3	C[C@@H]1CN([C@@H](C)CO)C(=O)c2cc(NC(=O)Nc3ccccc3)ccc2O[C@@H]1CN(C)CC1CC1
37	2.4	Cc1noc(C)c1NC(=O)N(C)C[C@H]1OCCCC[C@H](C)Oc2ccc(NS(=O)(=O)c3cccs3)cc2C(=O)N([C@@H](C)CO)C[C@H]1C
38	-2.4	CC(C)NC(=O)N(C)C[C@@H]1Oc2ccc(NS(=O)(=O)c3cccs3)cc2CC(=O)N([C@@H](C)CO)C[C@H]1C
39	-4.7	CNC[C@H]1Oc2c(NC(=O)Nc3cccc4ccccc34)cccc2C(=O)N([C@H](C)CO)C[C@@H]1C
40	-2.4	C[C@@H]1CN([C@H](C)CO)C(=O)c2cccc(NS(=O)(=O)c3cccs3)c2O[C@H]1CN(C)S(=O)(=O)c1ccc(Cl)cc1
41	-1.1	C[C@H]1CCCCO[C@@H](CN(C)C(=O)Nc2ccccc2)[C@@H](C)CN([C@@H](C)CO)C(=O)c2cc(NC(=O)C3CCCCC3)ccc2O1
42	-1.2	C[C@@H]1CN([C@H](C)CO)C(=O)c2cc(NC(=O)C3CC3)ccc2O[C@@H]1CN(C)Cc1ccncc1
43	-3.9	C[C@@H]1CCCCO[C@@H](CN(C)Cc2ccncc2)[C@@H](C)CN([C@H](C)CO)C(=O)c2cc(NS(=O)(=O)c3ccccc3)ccc2O1
44	1.9	CNC[C@@H]1OCCCC[C@H](C)Oc2ccc(NS(=O)(=O)c3ccccc3)cc2C(=O)N([C@@H](C)CO)C[C@@H]1C
45	-12.0	COc1ccc(CN(C)C[C@H]2Oc3ccc(NS(=O)(=O)c4ccc(OC)cc4)cc3C(=O)N([C@@H](C)CO)C[C@H]2C)cc1
46	-0.6	C[C@H]1CN([C@@H](C)CO)C(=O)CCCn2cc(nn2)CO[C@H]1CN(C)C(=O)Nc1ccccc1F
47	-6.0	COc1ccc(S(=O)(=O)N(C)C[C@H]2Oc3ccc(NC(=O)CCCN(C)C)cc3C(=O)N([C@H](C)CO)C[C@H]2C)cc1
48	-6.8	C[C@@H]1CN([C@@H](C)CO)C(=O)c2cc(NS(C)(=O)=O)ccc2O[C@@H]1CN(C)C(=O)Nc1ccc2c(c1)OCO2
49	0.6	C[C@@H]1CCCCO[C@@H](CN(C)C(=O)Cc2ccccc2)[C@H](C)CN([C@H](C)CO)C(=O)c2cc(NC(=O)Nc3ccc(F)cc3)ccc2O1
50	-0.7	CNC[C@@H]1Oc2ccc(NC(=O)Nc3ccc4c(c3)OCO4)cc2C(=O)N([C@H](C)CO)C[C@@H]1C
51	7.0	C[C@H]1CN([C@@H](C)CO)C(=O)Cc2cc(NC(=O)Nc3ccccc3)ccc2O[C@H]1CN(C)CC1CC1
52	0.2	C[C@@H]1CN([C@H](C)CO)C(=O)Cc2cc(NS(=O)(=O)c3cn(C)cn3)ccc2O[C@@H]1CN(C)C(=O)Nc1ccc(F)cc1
53	-3.7	COc1ccc(CN(C)C[C@@H]2Oc3c(NS(=O)(=O)c4ccc(Cl)cc4)cccc3C(=O)N([C@H](C)CO)C[C@@H]2C)cc1
54	2.4	C[C@@H]1CN([C@@H](C)CO)C(=O)c2cc(N(C)C)ccc2O[C@@H](C)CCCCO[C@@H]1CN(C)C
55	1.1	C[C@@H]1CCCCO[C@H](CN(C)C(=O)Nc2ccccc2)[C@H](C)CN([C@H](C)CO)C(=O)c2cc(N(C)C)ccc2O1
56	1.5	C[C@H](CO)N1C[C@H](C)[C@@H](CN(C)C(=O)NC2CCCCC2)Oc2c(NS(=O)(=O)c3ccccc3)cccc2C1=O
57	-1.1	CC(C)NC(=O)N(C)C[C@@H]1OCCCC[C@@H](C)Oc2ccc(NS(=O)(=O)c3ccccc3)cc2C(=O)N([C@H](C)CO)C[C@@H]1C
58	-0.2	CC(C)NC(=O)N(C)C[C@@H]1OCCCC[C@H](C)Oc2ccc(N(C)C)cc2C(=O)N([C@@H](C)CO)C[C@H]1C
59	-0.8	CC(C)NC(=O)N(C)C[C@@H]1OCCCC[C@@H](C)Oc2ccc(N(C)C)cc2C(=O)N([C@@H](C)CO)C[C@@H]1C
60	-0.8	CC(C)NC(=O)N(C)C[C@H]1OCCCC[C@H](C)Oc2ccc(NC(=O)Cc3ccccc3)cc2C(=O)N([C@@H](C)CO)C[C@@H]1C
61	?	CC(C)NC(=O)Nc1ccc2c(c1)C(=O)N([C@@H](C)CO)C[C@@H](C)[C@@H](CN(C)S(=O)(=O)c1cn(C)cn1)OCCCC[C@@H](C)O2
62	-2.2	C[C@@H]1CN([C@H](C)CO)C(=O)Cc2cc(NC(=O)C3CC3)ccc2O[C@H]1CN(C)Cc1ccc(Cl)c(Cl)c1
63	3.2	Cc1noc(C)c1S(=O)(=O)Nc1ccc2c(c1)CC(=O)N([C@H](C)CO)C[C@H](C)[C@H](CN(C)Cc1ccncc1)O2
64	6.0	COc1ccc(S(=O)(=O)N(C)C[C@H]2Oc3ccc(NC(=O)Cc4ccccc4)cc3C(=O)N([C@H](C)CO)C[C@@H]2C)cc1

# Not all compounds are listed, so the mix of outcomes need not match the whole.
